# RanGTP-Imp inh – inhibitors of RanGTP-importin-beta interaction, primary screen, biochemical, FRET, CFP-Ran, YFP-importin-beta, homogeneous | cell-free CFP-Ran/YFP-importin-beta FRET ratio | inhibition, % (no concentration beside the values) | 300,000 compounds, 1.1% hits;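 active means most replicates above 15%; inconclusive means exactly half above 15%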;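 further: 0% = DMSO wells and 100% = Ran loaded with GDP instead of GTP; wells of about 40 µL received 100 nL stock; the first replicate is given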
# Vif TR-FRET – HIV-1 Vif–A3G interaction blockers – biochemical, TR-FRET, GST-Vif 1-94, biotin-A3G peptide, dose response retest, primary screen (AID 1117319); TR-FRET GST-Vif / biotin-A3G peptide binding; higher % means a stronger effect; test concentration not given here; strong numbers were not always called active; inhibition, %; hits with a dose series show IC50 in µM; 260,000 compounds, 0.57% hits;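 active means above the screen mean plus three standard deviations and confirmed in dose response; inconclusive means results disagree or hit not tested in dose response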;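 further: Vif residues 1-94 fused to GST binding biotinylated APOBEC3G peptide 110-148; 0% = full assay without inhibitor and 100% = GST in place of GST-Vif; retest series ran down from 100 µM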
# Beta2AR agonist – agonists of human beta-2 adrenergic receptor inducing internalization; 340,000 compounds, 0.43% hits; AID 504454; Am2.2-beta2AR cells, FAP receptor internalization, flow cytometry; reference of the scale not given here; P07550; response, % (no concentration beside the values);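 active means response above a set limit, near 3 SD of response in nonfluorescent compounds, cut at about 42% in these data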;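 further: stock transfer was 100 nL into about 11 µL; a reference agonist was the positive control; negative values mostly stem from fluorescent compounds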
# Target sequence (P07550 whole entry, looked up): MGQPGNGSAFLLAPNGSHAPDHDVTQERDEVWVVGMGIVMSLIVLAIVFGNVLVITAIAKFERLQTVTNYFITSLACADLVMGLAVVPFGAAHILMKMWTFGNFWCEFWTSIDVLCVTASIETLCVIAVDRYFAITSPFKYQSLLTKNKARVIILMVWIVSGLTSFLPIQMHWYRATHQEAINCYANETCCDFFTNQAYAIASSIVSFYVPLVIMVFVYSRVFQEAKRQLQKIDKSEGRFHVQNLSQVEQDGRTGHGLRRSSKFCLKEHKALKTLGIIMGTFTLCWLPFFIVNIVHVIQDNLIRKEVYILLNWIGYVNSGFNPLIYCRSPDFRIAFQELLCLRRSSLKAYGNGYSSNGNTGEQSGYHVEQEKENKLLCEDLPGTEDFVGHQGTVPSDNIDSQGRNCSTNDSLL
# ALR inh – inhibitors of human sulfhydryl oxidase ALR; AID 485317; inhibition, % (test concentration not listed); 290,000 compounds, 3.8% hits; purified ALR, DTT oxidation, H2O2 HRP-luminol luminescence; P55789;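 active means mean and each replicate at 75% or more; inconclusive means only one of the two met; inactive means neither met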;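 further: stock transfer was 7.5 nL into about 7.5 µL; 0% = neutral wells and 100% = wells with inactivated enzyme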
# HNF4A DNA FP – change in binding of human HNF4 alpha to DNA; HNF4a-FITC DNA binding, fluorescence polarization, 1 h; activity change, % at 10 µM; 360,000 compounds, 0.3% hits; AID 1224865; in the data active means activity change above about 30%, passing the limit was not always enough;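 further: controls were the assay level and a saturating level of protein; the project sought stronger binding though the title names inhibitors; some compounds called inactive have numbers as strong as hits; positive values seem to mean higher polarization but the record does not say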
# Target sequence (P41235 whole entry, looked up): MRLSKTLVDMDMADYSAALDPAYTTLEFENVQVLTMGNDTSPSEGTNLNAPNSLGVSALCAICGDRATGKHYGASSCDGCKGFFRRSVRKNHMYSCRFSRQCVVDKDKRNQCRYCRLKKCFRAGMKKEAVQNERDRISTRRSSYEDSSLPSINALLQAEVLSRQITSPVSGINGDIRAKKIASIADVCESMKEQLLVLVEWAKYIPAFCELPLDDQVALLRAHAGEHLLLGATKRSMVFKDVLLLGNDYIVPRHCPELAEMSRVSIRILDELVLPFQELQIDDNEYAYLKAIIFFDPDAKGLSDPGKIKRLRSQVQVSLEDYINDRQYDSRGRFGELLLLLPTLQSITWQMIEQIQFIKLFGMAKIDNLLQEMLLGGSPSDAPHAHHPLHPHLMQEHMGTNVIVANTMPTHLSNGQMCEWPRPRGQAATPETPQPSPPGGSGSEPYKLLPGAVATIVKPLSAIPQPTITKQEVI
# Calb FLC – affects C. albicans growth with fluconazole; C. albicans CaCi-2 (fluconazole-resistant clinical isolate) + fluconazole, Alamar Blue growth, 48 h; growth inhibition, % (test concentration not listed); 300,000 compounds, 0.57% hits;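 active means most replicates above 75%; inconclusive means exactly half above 75%; inactive means most below 75%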;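 further: all wells also contain fluconazole at 8 µg/ml as a sub-toxic cotreatment; 0% = median of DMSO wells and 100% = median of geldanamycin control wells; wells of about 8 µL received 7.5 nL stock; the first replicate is given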
# LANA-H2A inh – blocks KSHV LANA binding to histone H2A/H2B. Q9QR71. cell-free LANA-H2A/H2B peptide, fluorescence polarization. inhibition, % (no concentration beside the values). 320,000 compounds, 0.6% hits; in the data active means inhibition mostly above about 10%, no sharp cut-off; inactive means mostly below about 6.7%;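 further: stock transfer was 7.5 nL into about 10 µL; 0% = median of vehicle wells and 100% = median of positive control wells; one replicate is shown; the record names a cut of 25% in any replicate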
# Starred values were filed as active, the others as inactive; ? = inconclusive; . = no result given.
Compound	RanGTP-Imp inh	Vif TR-FRET	Beta2AR agonist	ALR inh	HNF4A DNA FP	Calb FLC	LANA-H2A inh
COc1ccc(NC(=O)CC2C(=O)N(c3ccc(Cl)cc3)C(=S)N2NC(=O)c2cccc(F)c2)cc1 (centres undefined)	-1.9	10.9%	-1.8	-0.5	2.8	5.4	-0.7
COc1cc(O)c(C(CC(=O)N2CCCC(C)C2)c2cc(OC)c(OC)c(OC)c2)c(OC)c1 (centres undefined)	0.5	.	-0.6	22.9	0.6	3.1	-1.0
CCNC(=S)NNC(=O)c1ccc2ncccc2c1	5.0	2.9%	0.0	18.8	-0.5	19.2	-1.2
CC(=O)N(C)c1ccc(N=NC2C(=O)N(C(N)=S)N=C2C)cc1 (centres undefined)	-3.2	0.8%	4.5	15.9	3.5	-10.5	5.3
Cc1ccccc1C(=O)NC(=S)Nc1sc2c(c1C#N)CCC(C)C2 (centres undefined)	1.7	-3.2%	3.8	3.9	-1.0	-0.5	-2.1
COc1cccc(-n2cnc3c(sc4nc(N5CCOCC5)c5c(c43)CCCC5)c2=O)c1	-1.6	-10.6%	0.3	-4.9	1.3	-0.3	4.9
c1ccc(Oc2cc(-n3cccn3)ncn2)cc1	-1.6	-6.1%	-3.4	-0.4	-3.5	-2.9	4.3
CC(/C=N/NC(=O)c1cccs1)=C\c1ccco1	20.4*	.	-2.9	-27.6	3.1	-11.3	3.0
O=C(Nc1ccnn1C1CCN(C2CCCCC2)CC1)c1cccc(F)c1	1.1	.	8.0	.	3.2	-13.6	.
COc1cc(S(=O)(=O)N(Cc2ccc(C)cc2)Cc2ccco2)ccc1-n1cnnn1	-3.3	0.8%	5.0	-7.5	-0.4	-6.0	3.9
CC(C)C(=O)O/N=C(\N)c1ccccn1	-3.4	.	-8.2	6.3	0.1	-12.9	-7.3
Cc1ccc(NC(=O)C(C)N2C(=O)c3ccccc3C2=O)c(C)c1 (centres undefined)	?	.	-6.5	-15.7	1.2	66.0	-6.7
COc1cc(/C=N/NC(=O)CNC(=O)c2ccco2)ccc1O	0.2	2.6%	7.8	99.3*	-1.8	35.8	7.8
CC1Cn2c(nnc2C23CC4CC(CC(C4)C2)C3)S1 (centres undefined)	4.4	1.5%	-12.4	-3.2	-1.9	-11.1	-1.9
O=C(NCc1ccco1)c1ccc(Oc2ccccc2)cc1	-6.3	6.2%	-14.9	90.5*	0.3	-2.5	3.6
O=C(CN1C(=O)CC(c2ccccc2)S(=O)(=O)c2ccccc21)N1CCCC1 (centres undefined)	0.5	-0.3%	-2.7	12.0	0.8	-1.7	0.7
c1ccc(-c2cn3nc(-c4ccccc4)c(-c4ccccc4)nc3n2)cc1	-8.6	6.7%	-40.5	3.3	-0.2	26.6	-3.2
COCCn1c(SCc2ccc(OC)c(F)c2)nc2ccccc2c1=O	?	.	-1.0	30.1	-0.8	11.0	5.3
CCOC(=O)c1nn(-c2ccc(F)cc2)cc1O	-0.5	-0.5%	5.1	-2.0	0.3	9.3	14.5
O=C(CSc1cccc2cccnc12)N/N=C/c1cccnc1	-1.6	0.7%	.	5.1	-7.0	?	0.4
COc1ccc(-n2c(N)c(C(=O)NCc3ccco3)c3nc4ccccc4nc32)cc1OC	17.1*	4.5%	9.9	-23.9	5.7	-8.8	5.7
CCCN=CC1=C(O)CC(c2ccccc2)CC1=O (centres undefined)	0.1	6.4%	3.9	-2.0	-3.9	-0.4	-0.6
CCC(C(=O)Nc1ncc(C)s1)c1ccccc1 (centres undefined)	2.6	6.7%	3.7	-12.8	-2.8	-18.9	3.1
O=C(Nc1ccccc1C(=O)Nc1ccccn1)c1ccc([N+](=O)[O-])cc1	3.1	-6.7%	-10.1	-23.8	-1.1	9.5	-3.9
Cc1cc(C)cc(NC(=O)c2ccc([N+](=O)[O-])o2)c1	0.4	.	3.9	.	4.1	-2.1	.
COC(=O)c1ccccc1-n1c(CCC(=O)O)ccc1-c1ccc(F)cc1	2.5	-2.0%	1.7	14.7	-2.0	1.1	-0.1
C=CCN(C(=O)CCC(=O)Nc1cc(C)on1)C(C(=O)NC1CCCC1)c1ccc(C)cc1 (centres undefined)	1.1	.	5.7	2.4	-5.5	13.4	-2.1
CC1CCCCN1CCCNC(=O)c1nn(C)c2c1CS(=O)(=O)c1ccccc1-2 (centres undefined)	4.2	.	4.0	1.8	-2.6	-15.6	-3.6
CCCOc1ccc(NC(=O)CC2C(=O)N(Cc3ccccc3)C(=S)N2Cc2cccs2)cc1 (centres undefined)	1.7	10.0%	4.0	.	1.1	11.1	.
CN(C(=O)COn1nnc2ccc(Cl)cc21)C1CCS(=O)(=O)C1 (centres undefined)	.	.	-3.9	.	-0.9	.	-1.8

# A stretch from further up:
Compound	RanGTP-Imp inh	Vif TR-FRET	Beta2AR agonist	ALR inh	HNF4A DNA FP	Calb FLC	LANA-H2A inh
COc1ccc(NC(=O)CC2C(=O)N(c3ccc(Cl)cc3)C(=S)N2NC(=O)c2cccc(F)c2)cc1 (centres undefined)	-1.9	10.9%	-1.8	-0.5	2.8	5.4	-0.7
COc1cc(O)c(C(CC(=O)N2CCCC(C)C2)c2cc(OC)c(OC)c(OC)c2)c(OC)c1 (centres undefined)	0.5	.	-0.6	22.9	0.6	3.1	-1.0
CCNC(=S)NNC(=O)c1ccc2ncccc2c1	5.0	2.9%	0.0	18.8	-0.5	19.2	-1.2
CC(=O)N(C)c1ccc(N=NC2C(=O)N(C(N)=S)N=C2C)cc1 (centres undefined)	-3.2	0.8%	4.5	15.9	3.5	-10.5	5.3
Cc1ccccc1C(=O)NC(=S)Nc1sc2c(c1C#N)CCC(C)C2 (centres undefined)	1.7	-3.2%	3.8	3.9	-1.0	-0.5	-2.1
COc1cccc(-n2cnc3c(sc4nc(N5CCOCC5)c5c(c43)CCCC5)c2=O)c1	-1.6	-10.6%	0.3	-4.9	1.3	-0.3	4.9

# Next part
compound	RanGTP-Imp inh	Vif TR-FRET	Beta2AR agonist	ALR inh	HNF4A DNA FP	Calb FLC	LANA-H2A inh
CCCCP(=O)(c1ccccn1)c1ccccn1	.	1.2%	3.5	.	-1.0	.	.
C#CCNC(=O)C1=C[C@@H](c2ccc3c(c2)OCO3)C[C@@H](OCc2ccc(CO)cc2)O1	0.8	.	-9.2	.	0.9	12.1	1.9
CC(=O)Oc1ccccc1C1OC(=O)c2ccccc2N1C(C)=O (centres undefined)	4.3	4.9%	7.3	6.6	4.0	-7.8	2.2
COc1ccc(-c2n[nH]c(=S)n2-c2ccc3c(c2)OCCO3)cc1OC	4.6	.	-2.7	-3.1	0.7	8.3	0.9
COc1ccccc1/C=C(/NC(=O)c1ccccc1)C(=O)NCCCn1ccnc1	1.4	.	6.8	-8.6	1.7	-10.3	5.6
O=C(Nc1ccc(CN2CCCCC2)cc1)c1c(F)c(F)c(F)c(F)c1F	-1.0	7.0%	-5.2	-9.5	-3.7	-24.2	-2.8
O=C1CSc2ccc(S(=O)(=O)NCc3ccccc3)cc2N1	5.0	-9.9%	2.5	-4.8	-0.5	56.6	8.4
O=C(/C=C/c1ccco1)NC(=S)Nc1ccccc1	0.4	10.3%	3.1	4.0	2.1	-8.3	-0.4
N#C/C(=C/c1ccncc1)c1nc2ccccc2s1	84.0*	.	-5.9	-11.6	6.2	2.5	-1.2
COc1ccc2cc3cc(C(=O)NCc4ccccn4)oc3nc2c1	0.0	-0.1%	10.6	.	1.7	9.9	-2.4
CC(C)COc1ccc(-c2nn(-c3ccccc3)cc2CO)cc1	3.2	2.1%	-1.4	1.9	0.6	3.4	-0.4
COc1cccc(C(=O)N2CCCc3ccccc32)c1	1.4	25.3%	2.3	-24.1	1.7	-4.5	3.2
COc1ccc(-n2c(CN3CCOCC3)nc3ccc([N+](=O)[O-])cc3c2=O)c(OC)c1	-0.5	3.7%	-5.0	-1.7	-1.6	10.6	1.6
O=C(N/N=C/c1ccc2c(c1)OCO2)c1cc2ccccc2o1	7.7	?	2.0	-0.6	0.3	2.9	-1.5
CCc1cc2c(Nc3ccccc3O)nc(C)nc2s1	-2.0	.	10.0	5.1	-2.2	31.1	-4.1
Cc1cc(C)cc(NC(=O)COc2coc(CN3CCN(c4ccccc4)CC3)cc2=O)c1	3.7	-5.3%	6.1	.	-0.1	8.1	5.5
COc1c2n(C)ccc3c-2n(c(=O)c1=O)c1ccccc31	3.0	.	0.0	-8.1	1.3	-4.8	-0.6
Cc1ccc(OCc2cc(C(=O)NCC(C)c3ccccc3)no2)cc1C (centres undefined)	5.3	-1.7%	-4.8	-9.3	7.0	-2.5	-2.4
CCc1cc(C(=O)N2CCCC(CNC(=O)c3ccc(-c4ccccc4)cc3)C2)no1 (centres undefined)	-2.2	-1.5%	-2.1	23.1	-4.1	5.8	-1.5
CCOCCc1nnc(NC(=O)c2cc(OC)c(OC)cc2[N+](=O)[O-])s1	-1.7	-3.0%	-2.5	.	3.6	?	1.0
CC(=O)c1ccc(OCCCC(=O)Nc2cccc(S(=O)(=O)N3CCOCC3)c2)cc1	.	-2.8%	-6.2	-1.7	3.4	.	0.2
Cc1ccc(C)c(S(=O)(=O)N2CCCOC2CNC(=O)C(=O)NCCCn2ccnc2)c1 (centres undefined)	-2.6	-7.7%	0.7	1.2	-3.7	-11.1	-2.6
CC(=O)C1=C(C)NC(C)=C(C(C)=O)C1c1cccs1	?	23.5µM*	0.1	4.1	-2.2	1.3	-1.2
O=c1[nH]c2ccccc2s1	?	.	-7.9	-6.6	4.8	4.0	3.5
Cc1cc(S(=O)(=O)N2CCCCC2CCNC(=O)C(=O)NC2CC2)ccc1F (centres undefined)	4.3	.	3.0	-1.2	-0.7	0.6	1.3
N#CC1=C(N)N2C(=C(C#N)C1c1cccc(Br)c1)Nc1ccccc12 (centres undefined)	28.3*	1.0%	-9.9	-1.7	2.9	-7.9	-0.8
CSc1ccccc1NC(=O)CN1CCN(S(=O)(=O)c2ccccc2[N+](=O)[O-])CC1	.	-6.4%	2.6	-4.3	0.5	.	0.0
Cc1ccc(CN(C)CC(=O)Nc2ccccc2C(=O)NC2CC2)o1	.	8.4%	-3.3	6.7	-0.1	.	-2.6
CC(C)CNC(=O)C(=O)NCC1CCCN1S(=O)(=O)c1cccs1 (centres undefined)	1.8	1.6%	-4.6	-7.6	-1.6	-5.4	-8.6
COc1ccc(C2C(C(=O)c3ccco3)=C(O)C(=O)N2CCCn2ccnc2)c(OC)c1 (centres undefined)	1.0	7.7%	-6.8	-0.4	-0.2	1.0	-3.7
C=CCn1cnc2scc(-c3ccccc3)c2c1=O	1.4	-2.0%	-17.5	-1.2	-1.2	.	1.1
Cc1ccc(NC(=O)COC(=O)c2ccc(Cl)cc2)cc1S(=O)(=O)N(C)C	3.8	-8.2%	-4.3	.	-3.5	-25.8	4.4
CCc1nnc(NS(=O)(=O)c2ccc(NC(=O)CCC(=O)O)cc2)s1	1.0	.	-2.7	.	-1.2	4.5	6.4
O=C1c2ccccc2NC(c2ccccc2F)N1NS(=O)(=O)c1ccccc1 (centres undefined)	2.5	.	6.3	2.9	-3.8	21.2	0.3
